Bioassay records deposited in PubChem by ICCB-Longwood Screening Facility, Harvard Medical School.
CapD inh: inhibitors of Bacillus anthracis CapD enzyme; purified CapD enzyme, fluorescence intensity read-out; active compounds read low; some hits fall short of the stated cut; z-score (concentration not given with the values); 140,000 compounds, 0.23% hits; AID 492967;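 active means z-score under -4 in either of two replicates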;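 further: stock transfer was 100 nL into about 40 µL; score is relative to mean and spread of the plate; one replicate is shown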
AID504770: E. coli YBA685 growth inhibition, screen for V. cholerae RctB inhibitors; AID 504770; E. coli YBA685 rctB-dependent plasmid, OD600 growth, 3 h; active compounds read low; z-score (concentration not given with the values); 130,000 compounds, 0.27% hits;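 active means z-score under -2 on both plates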;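 further: wells of about 30 µL received 100 nL stock; score is relative to mean and SD of the test wells; the first replicate is given; strong numbers were not always called active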
* = called active by the depositor.

`CCn1cc(Br)c(C(=O)OCC23COC4c5ccccc5OC(C)(CC2C)C4C3C)n1` (centres undefined) gave CapD inh 0.005.
For O=C(Cc1cn2ccsc2n1)N/N=C1\CCCCc2ccccc21 the results were AID504770 0.05.
`CC(C)N1C(=O)S/C(=C/c2ccccc2OCc2ccc(C(=O)O)cc2)C1=O` gave CapD inh -0.425 and AID504770 0.55.
Screening O=C(Cn1c(=O)n(CCCS(=O)(=O)C2CCCCC2)c(=O)c2ccccc21)c1ccccc1 returned CapD inh 0.08 and AID504770 -0.3.
Screening NS(=O)(=O)c1ccc(CNS(=O)(=O)Cc2ccccc2)cc1 returned CapD inh 1.15 and AID504770 -0.3.
Screening C=CCN1C(=O)/C(=C\c2ccc(OCC(=O)O)c(OC)c2)SC1=S returned CapD inh -1.67 and AID504770 -0.5.
For CCN(C(=O)CN1CCCCC1)c1nc2ccc(C)cc2s1 the results were CapD inh -0.355 and AID504770 -0.65.
CCCCN1C(=O)C(O)(c2c(C)nn(CCC#N)c2N)c2ccccc21 (centres undefined) was read as AID504770 0.2.
Screening O=C(CCn1c(=S)[nH]c2c(sc3ccccc32)c1=O)NC1CCCCC1 returned CapD inh 2.72 and AID504770 0.4.
Screening Oc1ccc2ccccc2c1C(c1cccs1)N1CCCCC1 (centres undefined) returned CapD inh 0.555 and AID504770 -0.85.
`Cc1ccc(CNc2c(C(=O)O)cnn2Cc2ccc(C)cc2)cc1` gave CapD inh -0.47 and AID504770 -0.85.
COC(=O)c1ccc(C(=O)OC)c(NC(=O)c2cc3cccc(OC)c3oc2=O)c1 was read as CapD inh 0.24.

12 consecutive entries out of the list so far:
`CCn1cc(Br)c(C(=O)OCC23COC4c5ccccc5OC(C)(CC2C)C4C3C)n1` (centres undefined) gave CapD inh 0.005.
For O=C(Cc1cn2ccsc2n1)N/N=C1\CCCCc2ccccc21 the results were AID504770 0.05.
`CC(C)N1C(=O)S/C(=C/c2ccccc2OCc2ccc(C(=O)O)cc2)C1=O` gave CapD inh -0.425 and AID504770 0.55.
Screening O=C(Cn1c(=O)n(CCCS(=O)(=O)C2CCCCC2)c(=O)c2ccccc21)c1ccccc1 returned CapD inh 0.08 and AID504770 -0.3.
Screening NS(=O)(=O)c1ccc(CNS(=O)(=O)Cc2ccccc2)cc1 returned CapD inh 1.15 and AID504770 -0.3.
Screening C=CCN1C(=O)/C(=C\c2ccc(OCC(=O)O)c(OC)c2)SC1=S returned CapD inh -1.67 and AID504770 -0.5.
For CCN(C(=O)CN1CCCCC1)c1nc2ccc(C)cc2s1 the results were CapD inh -0.355 and AID504770 -0.65.
CCCCN1C(=O)C(O)(c2c(C)nn(CCC#N)c2N)c2ccccc21 (centres undefined) was read as AID504770 0.2.
Screening O=C(CCn1c(=S)[nH]c2c(sc3ccccc32)c1=O)NC1CCCCC1 returned CapD inh 2.72 and AID504770 0.4.
Screening Oc1ccc2ccccc2c1C(c1cccs1)N1CCCCC1 (centres undefined) returned CapD inh 0.555 and AID504770 -0.85.
`Cc1ccc(CNc2c(C(=O)O)cnn2Cc2ccc(C)cc2)cc1` gave CapD inh -0.47 and AID504770 -0.85.
COC(=O)c1ccc(C(=O)OC)c(NC(=O)c2cc3cccc(OC)c3oc2=O)c1 was read as CapD inh 0.24.

New compounds follow
`O=C(Oc1ccc2c(c1)OCO2)c1ccc2c(c1)OCCO2` gave AID504770 1.4.
Screening O=C(NC1CCN(Cc2ccccc2)CC1)C1CC(=O)N(Cc2ccco2)C1 (centres undefined) returned CapD inh 1.01 and AID504770 -1.05.
Screening CN1N=C(C(C)(C)C)CSC1=Nc1ccccc1 returned CapD inh 0.64 and AID504770 0.4.
C=CCN1C(=O)/C(=C2/Sc3ccc(Cl)cc3N2C)SC1=S was read as CapD inh -0.555.
COCCN=c1scc(-c2ccc(OC(F)F)cc2)n1/N=C/c1ccc[nH]1 was read as AID504770 -0.25.
COC(=O)c1ccc2c(c1)C(=O)/C(=C/c1cn(-c3ccccc3)nc1-c1ccco1)O2 was read as CapD inh -0.27 and AID504770 0.
For CC(C)c1ccc(CNc2nc(N)n(-c3ccccc3)n2)cc1 the results were CapD inh -0.805 and AID504770 2.
For CCSc1nc(NC(N)=O)c2c3c(sc2n1)CC(C(C)(C)C)CC3 (centres undefined) the results were CapD inh -0.44.
Screening Cc1ncoc1C(=O)NC(c1ccccc1)c1ccccc1 returned CapD inh 0.67 and AID504770 -0.05.
Screening O=C1CCC(=O)N1CNc1cccnc1 returned CapD inh 0.865.
`N#CC(C#N)c1nc2cc3c(cc2nc1Cl)OCCO3` gave AID504770 -0.6.
`Cc1[nH]n(-c2ccc([N+](=O)[O-])cc2)c(=O)c1C=NCc1ccc2c(c1)OCO2` gave CapD inh -0.305.
Screening O=c1[nH]c2ccc(Cl)cc2c2oc(-c3ccccc3)nc12 returned CapD inh 15 and AID504770 -0.85.
O=C(O)c1ccccc1-c1ccccc1C(=O)Nc1ccccc1O was read as CapD inh 0.225 and AID504770 0.75.
For CCO/C=C1\C(=O)N(C)C(=O)c2ccccc21 the results were CapD inh 13.5 and AID504770 -0.6.
`c1ccc(Nc2nc3ccccc3n3cnnc23)cc1` gave CapD inh 4.79 and AID504770 2.45.
For CC1CC(=O)C2CCCCC2N1 (centres undefined) the results were AID504770 -0.75.
Screening CN(C)c1ccc(C2C3=C(CC(C)(C)CC3=O)NC3=C2C(=O)CC(C)(C)C3)cc1 returned CapD inh -0.78.
`C=C(NCc1cccnc1)c1ccc(Cl)cc1` gave CapD inh -0.89.
For Cc1ccc(-n2c(SCC(N)=O)nc3ccccc3c2=O)cc1 the results were CapD inh 0.455 and AID504770 -0.1.
`Cc1ccc(NC(=O)/N=C2/NC(=O)C(C(C)C)O2)cc1` (centres undefined) gave AID504770 -0.55.
COc1ccc2c(c1)C(C)(C)C1(C=Nc3c(c(C(=O)N4CCCCC4)cc4ccccc34)O1)N2C (centres undefined) was read as CapD inh -0.73.
`N#CCOc1ccc2c(C#N)c3ccccn3c2c1` gave CapD inh 0.365 and AID504770 1.05.
`COC(=O)C1(C)NC(c2ccc(OC)cc2)C2C(=O)N(c3ccccc3)C(=O)C21` (centres undefined) gave AID504770 -0.3.
`COc1ccc(C(=O)N/N=C/c2cc(C)cc(C)c2)cc1` gave CapD inh -0.145.
Screening O=C(NC1CCCC1)c1cc(-c2ccc(Cl)cc2)on1 returned CapD inh -0.465 and AID504770 1.3.
For CSc1nnnn1-c1cccc(O)c1 the results were CapD inh 1.22 and AID504770 0.
`C1C/C(=N/N=C2\CCCc3nonc32)c2nonc2C1` gave AID504770 2.1.
Screening CCOC(=O)Cn1cc(/C=C2\C(=O)NC(=O)N(c3ccc(F)cc3)C2=O)c2ccccc21 returned CapD inh 0.87 and AID504770 -0.85.
For CCOc1ccc(/C=N/NS(=O)(=O)c2ccc(C)cc2)cc1 the results were CapD inh -0.3.
Screening CCOC(=O)c1cc(C)nc(N2CCC(C(N)=O)CC2)c1C#N returned CapD inh -0.79 and AID504770 0.35.
Cc1nc(Cl)c(C#N)c2c1CCCC2 was read as CapD inh 0.74 and AID504770 0.2.
For Clc1ccc(COCCn2cc(-c3ccc4ccccc4n3)cn2)c(Cl)c1 the results were CapD inh 5.04.
`N#Cc1cc(C#N)c(SCC(=O)N(c2ccccc2)c2ccccc2)nc1N` gave CapD inh 1.61.
CC1CCCCC1NC(=O)COC(=O)c1ccc2c(c1)NC(=O)CS2 (centres undefined) was read as AID504770 1.8.
Screening CCOc1cccc2c1N(C(=O)Cc1ccc(F)cc1)C(C)(C)C1=C2C2(SC(C(=O)OC)=C(C(=O)OC)S2)C(C(=O)OC)=C(C(=O)OC)S1 returned CapD inh -0.045.
CCc1nc2ccccc2c2c1C(=O)N(Cc1ccccc1OC(F)(F)F)C2=O was read as CapD inh -0.98.
For O=C1N(Cc2cc(=O)n3ccccc3n2)c2ccccc2S(=O)(=O)N1c1ccc(Cl)cc1 the results were CapD inh 1.23 and AID504770 0.1.
Screening C/C(=N\C(=O)NN)c1cnn(-c2ccccc2)c1C returned CapD inh 1.44 and AID504770 -0.15.
`Cc1[nH]nc2nc(SCC(=O)N3CCCC3)n(-c3ccc(Br)cc3)c(=N)c12` gave CapD inh 5.09 and AID504770 -0.05.
`COc1cc(CC(=O)Nc2ccccc2N2CCOCC2)cc(OC)c1OC` gave AID504770 0.55.
`O=c1c(Cl)c(Nc2ccc3c(c2)OCO3)cnn1C12CC3CC(CC(C3)C1)C2` gave CapD inh -0.11 and AID504770 0.1.
CCOC(=O)N1CCC(NC(=O)CCc2c(C)nc3ncnn3c2C)CC1 was read as CapD inh -0.39 and AID504770 -0.3.
`C=CCN1C(=O)c2ccc(C(=O)OCc3nc4cc(C(=O)OC)ccc4c(=O)[nH]3)cc2C1=O` gave AID504770 0.3.
Cc1ccc(C(=O)CSC#N)o1 was read as CapD inh -0.725 and AID504770 -3.1*.
For CN(C(=O)Cc1ccc(Br)cc1)c1ccccc1 the results were CapD inh 0.255 and AID504770 -0.9.
`Cc1cccc(COn2c(=O)c[n+]([O-])c3ccccc32)c1` gave CapD inh 0.935 and AID504770 0.
COC(=O)C1CCN(c2cc(=O)n(-c3ccccc3Cl)c(=O)[nH]2)CC1 was read as CapD inh -0.37 and AID504770 0.7.
`O=C1CN(C(=O)Cc2c(Cl)cccc2Cl)CCN1` gave AID504770 -0.1.
Screening O=C(c1ccc(-c2ccccc2)s1)N1CCOCC1 returned CapD inh -0.26 and AID504770 -0.15.
`COc1ccc(OCCOC(=O)c2n[nH]c3ccccc23)cc1` gave AID504770 -0.35.
COC(=O)c1cccc(-c2ccc(/C=C(/C#N)c3ccc(Cl)cc3)o2)c1 was read as CapD inh -0.08 and AID504770 1.2.
Screening O=c1ccc2ccc(Oc3ncccn3)cc2o1 returned AID504770 -1.
`CC1(NC(N)=O)CCS(=O)(=O)C1` (centres undefined) gave AID504770 2.35.
For Cc1ccc(C)c(NC(=O)C2CCCN(c3cnccn3)C2)c1 (centres undefined) the results were CapD inh -0.035 and AID504770 3.15.
For c1ccc(-n2ncc3c(N4CCCC4)ncnc32)cc1 the results were CapD inh 1.3 and AID504770 0.25.
Cc1ccccc1CS(=O)(=O)Cc1ccc(C(=O)NCCC(C)C)o1 was read as CapD inh -0.925 and AID504770 -1.15.
CCOC(=O)c1ccc(NC(=O)CSc2nnc(CNc3ccc(C)cc3C)n2Cc2ccco2)cc1 was read as AID504770 -0.6.
For N#Cc1c(/N=C/c2ccc(I)cc2)oc(-c2ccccc2)c1-c1ccccc1 the results were CapD inh -0.405.
COc1ccc(N2Cc3ccccc3C3(CCOCC3)C2=N)cc1 was read as CapD inh 0.56 and AID504770 -0.5.
Screening Cc1cc(S(=O)(=O)NCc2cccnc2)c(C)cc1Cl returned CapD inh 0.28.
C=CCn1c(COc2cccc3cccnc23)nnc1SCC(=O)O was read as CapD inh 1.77 and AID504770 1.3.
CCC(=O)N1C(C(=O)NCc2ccc(OC)cc2)CSC1c1ccc(OC)cc1 (centres undefined) was read as CapD inh -0.64 and AID504770 -0.95.
CCOC(=O)C1=NNC2C(=O)N(c3ccccc3F)C(=O)C12 (centres undefined) was read as CapD inh 0.09.
Screening Cc1cc(=O)[nH]c(SCCC(=O)O)n1 returned CapD inh -0.67 and AID504770 -0.55.
Screening O=C(CSc1c[nH]c2ccccc12)N1N=C(c2cccs2)CC1c1ccc(F)cc1 (centres undefined) returned CapD inh -0.45.
Screening CCc1ccc([C@H]2C(C#N)=C(N)C(C#N)(C#N)C3=CCN(C(=O)OC)C[C@@H]32)cc1 returned CapD inh 37.9 and AID504770 -0.7.
For CCN(CC)c1ncc2c(n1)CC(c1ccco1)CC2=O (centres undefined) the results were CapD inh -0.335 and AID504770 1.7.
O=C1CC(Cc2ccccc2)C(=O)N1Cc1ccco1 (centres undefined) was read as AID504770 -0.2.
CCCOc1ccc2c3c(c(=O)oc2c1OCCC)CCC3 was read as CapD inh 1.02 and AID504770 -0.65.
`O=C(CO/N=C/c1ccco1)NCc1ccccc1` gave AID504770 1.
Cc1nn(-c2ccccc2)c(C)c1C(=O)OCc1cccc(S(=O)(=O)N(C)C)c1 was read as AID504770 -0.5.
`CC1=NN(c2ccccc2)C(=O)/C1=C/c1ccc(OS(=O)(=O)c2ccccc2[N+](=O)[O-])cc1` gave CapD inh 0.41.
C=CCNC(=O)c1ccc2c(c1)NC(=O)C(C)N2 (centres undefined) was read as CapD inh 55.4 and AID504770 1.5.
CC(c1nc2ccccc2c(=O)[nH]1)N1CCN(Cc2ccc(Cl)s2)CC1 (centres undefined) was read as AID504770 1.15.
Screening CC(C)c1ccc(C2C(C#N)=C(N)SC(N)=C2C#N)cc1 returned CapD inh -0.445 and AID504770 0.05.
CCOC(=O)C1=C(NC(=S)NC(=O)c2ccccc2)c2ccccc2CC12CCCC2 was read as CapD inh 0.075.
Screening COc1ccc(CN(CCC2CCOC(C)(C)C2)C(C)=O)cc1 (centres undefined) returned CapD inh 0.38 and AID504770 -0.15.
`O=C(NCc1ccccc1)c1ccc2ncsc2c1` gave CapD inh 0.43 and AID504770 -0.75.
Cc1cccc(C)c1NC(=O)CSC(=O)c1sc2ccccc2c1Cl was read as CapD inh -0.785 and AID504770 -0.45.
CCOc1ccc(C2c3[nH]c4ccccc4c3CCN2C(=O)c2ccc(Cl)c(Cl)c2)cc1 (centres undefined) was read as CapD inh -0.44.
`CN(C(=S)NC(=O)c1ccco1)C1CCS(=O)(=O)C1` (centres undefined) gave AID504770 0.3.
`COCCCn1cnn2c(=O)c3ccccc3nc2c1=O` gave CapD inh -0.58 and AID504770 -0.1.
Cc1ccc(CSc2nc3c(c(Sc4ccccc4N)n2)CCCC3)cc1 was read as CapD inh -0.34.
Screening O=C(O)/C=C\C(=O)Nc1ccccc1SCC(O)Cn1ccc(C(F)(F)F)n1 (centres undefined) returned CapD inh 0.53 and AID504770 0.4.
Screening Cc1cc(C)n2nc(SCC(=O)NC(C)CCc3ccccc3)nc2n1 (centres undefined) returned CapD inh 10.2 and AID504770 -0.05.
Screening Fc1ccc(CNc2ccc(N3CCOCC3)cc2)cc1 returned AID504770 -0.3.
For COc1ccc(-n2c(=O)c3ccccc3n(Cc3ccccc3)c2=O)cc1OC the results were CapD inh -1.19 and AID504770 -1.4.

Compounds were not picked by outcome (roughly 0.37% active in at least one column).
